Screens from PubChem.
Mtb H37Rv – Confirmatory growth inhibition assay against Mycobacterium tuberculosis H37Rv, potency (AID 1949) | most inactive calls were filed without a number and no value below 0 was filed | inhibition, % at 10 µg/mL, or IC50 in µg/mL where a hit was titrated | 100,000 compounds, 1.6% hits;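 active = confirmed in a dose series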;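 note: bacteria grown 7 days with compound before Alamar blue readout; 0% = untreated bacteria and 100% = reference antibiotic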
Starred values were filed as active, the others as inactive; i = inactive. The list is partial. The share of hits here may be higher or lower than overall.

smiles,Mtb H37Rv
CCOC(=O)c1ccc(NC(=O)Nc2ccc(C(=O)OCC)cc2)cc1,i
CCOC(=O)c1sc2ncn(CC(=O)Nc3ccc(F)c(Cl)c3)c(=O)c2c1C,i
Cc1cc(C(=O)Nc2c(F)cc(F)cc2Br)cs1,8%
O=C(Nc1ccc(C(=O)N2CCCCC2)c(Cl)c1)c1cccc([N+](=O)[O-])c1,i
COc1ccc(C(=O)c2sc(Nc3ccccc3F)c(C#N)c2N)cc1,10%
CC(C)CC(=O)NC(=S)Nc1ccc(O)c(-c2nc3ccccc3o2)c1,i
CCCn1c(NCc2ccc(N(CC)CC)cc2)nc2ccccc21,4%
CCOC(=O)c1cc(CC)sc1NC(=O)CCn1cnc2ccccc2c1=O,i
CCc1nc(C)cn1S(=O)(=O)c1ccc(C(C)C)cc1,15%
CN(CC(O)COc1ccc(Br)cc1)C1CCCCC1 (stereo not drawn),i
Clc1ccccc1COc1ccc(CNCc2cccnc2)cc1,i
O=C(Nc1ccc(NC(=O)c2sc3cc(Cl)ccc3c2Cl)cc1)c1ccco1,1%
CCCC(=O)Nc1cccc(NC(=S)NC(=O)c2ccc(Br)cc2)c1,i
Cc1ccc(S(=O)(=O)N2CCN(CC(=O)Nc3ccc(F)cc3)CC2)c(C)c1,i
NC(=O)C1(N2CCCCC2)CCN(C(=S)NC2CCCC2)CC1,i
Cc1cccc(OCC(=O)Nc2ncc(Cc3ccc(Cl)cc3)s2)c1,i
CCOC(=O)CSc1nnc(-c2cccnc2)n1Cc1ccccc1,i
CNC(=S)N1N=C(c2ccc(C)cc2)CC1c1ccc(Cl)cc1 (stereo not drawn),i
COc1cccc(C(=O)Nc2ccc(-c3nc4ccccc4c(=O)o3)cc2)c1,4%
Cc1cc(C)c(S(=O)(=O)N(C)CC(=O)NCC2CCCO2)c(C)c1 (stereo not drawn),i

Retrieved by compound from above (two):
smiles,Mtb H37Rv
O=C(Nc1ccc(NC(=O)c2sc3cc(Cl)ccc3c2Cl)cc1)c1ccco1,1%
Cc1ccc(S(=O)(=O)N2CCN(CC(=O)Nc3ccc(F)cc3)CC2)c(C)c1,i

Further entries follow.
smiles,Mtb H37Rv
CCC(=O)N1CCN(c2ccc(Cl)cc2NC(=O)c2sc3ccccc3c2Cl)CC1,i
CC1=C(C(=O)Nc2ccc(F)cc2F)C(c2ccc(Cl)cc2Cl)C2=C(CC(C)(C)CC2=O)N1 (stereo not drawn),i
Cc1ccccc1CNC(=O)CN1C(=O)c2cccc3cccc1c23,i
O=C1C2C3C=CC(C3)C2C(=O)N1Nc1ccccc1 (stereo not drawn),i
O=C(CSc1nnc(-c2ccc(Cl)cc2Cl)n1-c1ccccc1)Nc1nccs1,i
COc1cc(CO)cc(I)c1OCc1ccc(C)cc1,i
O=C1NC(=S)N(Cc2ccccc2)C(=O)C1(CCc1ccncc1)CCc1ccncc1,i
COc1ccc(NC(=S)Nc2ncccc2C)cc1OC,4%
CCN(CC)CCCN1C(=O)C(O)=C(C(=O)c2ccc(C)o2)C1c1ccc([N+](=O)[O-])cc1 (stereo not drawn),i
CC(CCc1ccccc1)NC(=O)C12CC3CC(CC(C3)C1)C2 (stereo not drawn),i
Cc1ccc(C(=O)N2CCC(C(=O)O)CC2)cc1,i
C=CCc1ccc(OCC(O)CN2CCN(CCO)CC2)c(OC)c1 (stereo not drawn),i
COc1cc(C(=O)O)cc(I)c1OCC(=O)NCCc1ccccc1,i
O=C(CNS(=O)(=O)c1ccc(Br)cc1)N1CCOCC1,i
COc1ccc(NC(=O)c2ccco2)cc1NC(=O)COc1cc(C)c(Cl)c(C)c1,i
CC(C)(C)NS(=O)(=O)c1ccc(NC(=O)c2ccccc2Oc2ccccc2)cc1,i
COc1ccc(OC)c(NC(=O)C(=O)NC(C)C)c1,i
Cc1cc(C)cc(OC(C)C(=O)Nc2ccc(S(N)(=O)=O)cc2)c1 (stereo not drawn),i
Cc1ccc(C2CC(=O)c3cnc(N4CCOCC4)nc3C2)cc1 (stereo not drawn),3%
CCOC(=O)C1CCCN(C(=O)c2ccc(SC)cc2OC)C1 (stereo not drawn),i
Cc1cccc(NC(=O)c2ccc(O)cc2)c1C,i
Cc1c(Cc2ccccc2)c(=O)oc2cc(OC(=O)c3ccccc3)ccc12,0%
O=C(NCCC(c1ccccc1)c1ccccc1)C1CCCO1 (stereo not drawn),i
Cc1cc([N+](=O)[O-])ccc1NC(=O)CSc1nnc(-c2ccc(Cl)cc2Cl)n1C,i
CCCOc1ccc(N2CC(C(=O)Nc3ccccc3C(C)C)CC2=O)cc1 (stereo not drawn),i
O=C(c1ccco1)N(Cc1cccs1)c1ccc(O)cc1,i
CCOC(=O)c1ccc(NC(=O)c2cccc(OC)c2)cc1,i
CC(=O)c1cccc(NC(=S)NC(=O)c2ccc(C(C)(C)C)cc2)c1,13µg/mL*
COc1ccc(C(=O)N2CCN(CCNC(=O)C(=O)Nc3ccc(Br)cc3)CC2)cc1,i
Cc1ccc(C(C)C)c(OCCCN2C(=O)NC(C)(C)C2=O)c1,2%
COc1ccc(C(=O)Nc2nnc(CC(C)C)s2)c(OC)c1,4%
CCCCCc1nnc(NC(=O)C(C)Oc2ccc(Cl)cc2Cl)s1 (stereo not drawn),i
Cc1ccc2oc(C(=O)O)cc(=O)c2c1,i
Clc1ccccc1C1C=C(c2ccccc2)Nc2nnnn21 (stereo not drawn),34%
CCC(C)NC(=O)C1CCN(S(=O)(=O)c2cc(OC)ccc2OC)CC1 (stereo not drawn),i
CCC(=O)N1CCN(c2ccc(Cl)cc2NC(=O)c2ccc(-c3ccccc3)cc2)CC1,i
COc1cc(NC(=O)c2ccc(Oc3ccc(C(F)(F)F)cc3[N+](=O)[O-])cc2)ccc1C,i
COc1ccccc1NC(=O)CCSc1ccc(Cl)cc1,i
COc1ccc(CCNC(=O)c2ccc(-c3ccccc3Cl)o2)cc1,7%
COCCSc1nnc(NC(=O)C(C)Oc2ccccc2)s1 (stereo not drawn),i

Part of the list above in order of heavy-atom count, lowest first.
smiles,Mtb H37Rv
COc1ccc(OC)c(NC(=O)C(=O)NC(C)C)c1,i
CCOC(=O)c1sc2ncn(CC(=O)Nc3ccc(F)c(Cl)c3)c(=O)c2c1C,i
CCC(=O)N1CCN(c2ccc(Cl)cc2NC(=O)c2ccc(-c3ccccc3)cc2)CC1,i

Next section:
smiles,Mtb H37Rv
Cc1nc(/N=C(\N)Nc2cccc3ccccc23)[nH]c(=O)c1C,i
COc1ccc(OC)c(NC(=O)c2c(NC(C)=O)sc3c2CCC(C)C3)c1 (stereo not drawn),i
COC(=O)COc1cc(Br)c(C2C(C#N)=C(N)Oc3c2ccc2ccccc32)cc1OC (stereo not drawn),i
Cc1noc(-c2ccccc2OC(=O)c2ccccc2)n1,i
CNc1ccc(C(O)(C(F)(F)F)C(F)(F)F)cc1,i
Cc1cc(C)c(NC(=O)CSC2=C(C#N)C(c3ccc(F)cc3)CC(=O)N2)c(C)c1 (stereo not drawn),i
COc1ccc(-c2nc(-c3cccc(C)c3)no2)cc1OC,6%
O=C(Cn1c(=O)oc2ccccc21)Nc1ccccc1Cl,i
Cc1nc2c(c3c1[nH]c1ccccc13)C(O)CC(C)(C)C2 (stereo not drawn),4%
Cc1ccc(NC(=O)c2ccc(C(C)C)cc2)nc1,1%
O=S(=O)(/N=C(\Nc1ccc(OC(F)(F)F)cc1)c1ccccc1)c1ccc(Br)cc1,i
CCOC(=O)C1CCCN(CCC(=O)Nc2ccc(OC)cc2OC)C1 (stereo not drawn),i
CCOc1ccc(N(CC(=O)OC)S(=O)(=O)c2ccc(Br)cc2)cc1,i
O=C(NCCO)c1ccc(Cl)c(Cl)c1,i
Cn1c(=O)c2c(nc(Oc3cccc4cccnc34)n2C)n(C)c1=O,i
S=C(NCc1ccco1)N1CCN(C2CCCCC2)CC1,3%
CCC(C)N(C(=O)c1cc(Cl)ccc1Cl)C(C)CC (stereo not drawn),i
CS(=O)(=O)N(CC(=O)NCc1ccc(Cl)cc1)c1cccc(F)c1,i
Cc1cc(Cl)c(Cl)cc1S(=O)(=O)NCCCn1ccnc1,i
CCSCc1nnc(SCC(=O)c2ccc(OC)cc2)n1C,1%

The closing three records of the section above come first, to join the parts:
smiles,Mtb H37Rv
CS(=O)(=O)N(CC(=O)NCc1ccc(Cl)cc1)c1cccc(F)c1,i
Cc1cc(Cl)c(Cl)cc1S(=O)(=O)NCCCn1ccnc1,i
CCSCc1nnc(SCC(=O)c2ccc(OC)cc2)n1C,1%
Cc1ccc(OCCCCN2CCOCC2)c(Br)c1,i
O=C(NC(=S)Nc1ccc(CCC(=O)N2CCCC2)cc1)c1cncc(Br)c1,i
N#Cc1nc(N2CCCCC2)nc(N2CCOCC2)n1,i
COCCn1c(SCC(=O)Nc2ccc(Cl)cc2Cl)nnc1-c1ccccc1,2%
Cc1ccc(-c2ccc(S(=O)(=O)NCc3ccco3)cc2)cc1,i
O=C(Nc1ccc(F)cc1F)C1COc2ccccc2O1 (stereo not drawn),i
COc1ccc(N(CC(=O)Nc2cccc(OC)c2)S(=O)(=O)c2ccc(F)cc2)cc1,4%
CCc1noc(-c2[nH]c3ccccc3c2C(=O)C(=O)N(C)C)c1C,6%
COc1ccc(CCC(=O)Nc2nnc(C(F)(F)F)s2)cc1,i
CCCCc1c(C)nc(SCc2ccccc2)[nH]c1=O,i
Cc1ccc(S(=O)(=O)NCC(=O)Nc2ccc3c(c2)OCCO3)cc1,i
O=C(CCN1C(=O)c2ccccc2C1=O)N1CCCCC1,i
CC(C(=O)NCCCN1CCOCC1)c1ccc([N+](=O)[O-])cc1 (stereo not drawn),i
O=C(Nc1cccc2ncccc12)c1cccc(Br)c1,i
Cc1nn2c3ccccc3n(C)c2c1C(=O)/C=C/c1ccc(Cl)cc1Cl,i
COc1cccc(C2=CC(c3cccs3)n3nnnc3N2)c1 (stereo not drawn),5%
O=C(CN(C1CCCCC1)S(=O)(=O)c1ccc(Br)cc1)Nc1ccccc1,1%
COC(=O)c1ccccc1NC(=O)Nc1ccccc1SC,i
CC(=O)Nc1ccccc1C(=O)C(=O)NCc1ccco1,3%
CC1CCc2c(sc3nc4n(c(=O)c23)CCS4)C1 (stereo not drawn),10%
COc1ccc(S(=O)(=O)N2CCN(c3cc(Cl)ccc3C)CC2)cc1OC,i
COc1cc(NC(=O)COc2ccccc2)ccc1NC(=O)C(C)C,i
CC(C)=CCSc1nnc2nc3[nH]c4ccccc4c3nn12,0%
COc1cccc(N(CC(=O)Nc2ccc3c(c2)OCCO3)S(=O)(=O)c2ccc(C)cc2)c1,i
O=C(c1ccco1)N1CCN(c2ccnc3cc(Cl)ccc23)CC1,i
Cc1cc2n(n1)C(O)(C(F)(F)F)CC(O)(C(F)(F)F)N2 (stereo not drawn),i
Cc1ccc(Nc2nc(-c3ccc(C)o3)cs2)nc1,9%
Cc1cc(C)c(C(=O)/C=C/c2cccc([N+](=O)[O-])c2)cc1C,0.36µg/mL*
CCC(Sc1nnc2c(n1)[nH]c1ccccc12)C(=O)Nc1sc2c(c1C#N)CCCC2 (stereo not drawn),i
CCN(Cc1ccccc1)S(=O)(=O)Cc1ccccc1,i
C=CCn1c(COc2ccccc2)nnc1SCC(=O)Nc1cc(Cl)ccc1Cl,39%
N#Cc1ccccc1CSc1nc2ccccc2c(=O)n1-c1ccccc1,i
CCN(CC)C(=O)C(=O)Nc1ccc(C(N)=O)cc1,i
Cc1ccc(S(=O)(=O)N2CCN(c3ccc([N+](=O)[O-])c(N4CCCCC4)c3)CC2)cc1C,i
CCn1c(SCC(=O)c2ccc(Br)cc2)nnc1-c1ccncc1,i
CN(c1cccc(NC(=O)c2ccccc2Cl)c1)S(C)(=O)=O,i
CCn1nnc(NC(=O)CSc2ccc(Cl)cc2)n1,i
O=C(Nc1ccccc1-c1nc2ccccc2s1)c1cccc(F)c1,4%
Cc1ccccc1CN1CCN(C(=O)c2ccc(-c3ccccc3)cc2)CC1,i
Cn1c(SCC(=O)Nc2ccccc2Cl)nnc1-c1ccc(Br)cc1,i
C=CCNC(=O)Nc1ccc2c(c1)nnn2C,i
Cc1cc(C)nc(SCC(=O)Nc2ccc(S(=O)(=O)NCCO)cc2)n1,i
O=C(Nc1nnc(SCC(=O)N2CCCCC2)s1)c1ccc(Cl)cc1Cl,i
O=C(Nc1cc(C(F)(F)F)ccc1Cl)C1CC1c1ccccc1 (stereo not drawn),i
O=C(CSc1nc(O)cc(=O)n1-c1ccccc1F)Nc1ccc(Cl)cc1Cl,i
CCOc1cc(C=O)ccc1OCc1ccccc1C#N,i
O=C(c1ccc(Br)o1)N1CCN(c2ncccn2)CC1,i
CC(=O)N(c1cc(C)cc(C)c1)C1C=CS(=O)(=O)C1 (stereo not drawn),i
Cc1ccc(-c2cc(C(=O)Nc3cccnc3)c3ccccc3n2)cc1C,25%
O=C(CCS(=O)(=O)Cc1ccccc1)Nc1nc2c(s1)CCCC2,i
Cc1ccc(Cl)cc1N1CCN(CC(O)COC2CC(C)CC(C)(C)C2)CC1 (stereo not drawn),7.8µg/mL*
COc1ccc(OC(=O)c2ccccc2Cl)cc1,1%
Cc1ccc(OCC(=O)Nc2ccc3oc(-c4ccccc4)nc3c2)cc1C,i
COc1cc(S(=O)(=O)NCCc2ccccc2)ccc1F,i
COc1ccc(CNC(=O)CN(c2cccc([N+](=O)[O-])c2)S(C)(=O)=O)cc1,i
O=C(NCCc1c[nH]c2ccccc12)c1ccccc1,i
Cc1cc(=O)oc2cc(OCC(=O)Nc3ccc(I)cc3)ccc12,i
